Vaccinia inh: blocks a specific stage of Vaccinia orthopoxvirus infection, primary screen, cell-based, single point; Vaccinia-infected cells, mCherry/Venus stage reporter fluorescence; stronger effect = lower value; some inactives read as strong as hits; 89,000 compounds, 0.01% hits; AID 1053133, 2014; activity change (mCherry), % (concentration not given with the values);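 active means mCherry past -33% and 40 or more points under the early reporter, replicates agreeing; inconclusive means past -33% without that gap or agreement; tested in A549 cells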;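 further: scaled between vehicle wells and reference inhibitor wells; 23 nL library stock went into each well; one replicate is shown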
Vaccinia inh Venus: also measured in Vaccinia inh; calls as there; activity change (Venus), %; measured here: Venus reporter, other viral stage;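 negative = less Venus signal; first of two replicates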
* hit, by the source's call; u = inconclusive; x = no result given; & = joins results of further samples. This is a subset; the hit share may differ from the screen's.

SMILES	Vaccinia inh	Vaccinia inh Venus
COc1ccc(NC(=O)N(C)C[C@@H]2OCCCC[C@@H](C)Oc3ccc(NC(=O)Nc4ccc5c(c4)OCO5)cc3C(=O)N([C@@H](C)CO)C[C@H]2C)cc1	19	6
C[C@@H]1CCCCO[C@@H](CN(C)C(=O)CCC(F)(F)F)[C@H](C)CN([C@@H](C)CO)C(=O)c2cc(NS(=O)(=O)c3cn(C)cn3)ccc2O1	12	5
C[C@@H]1CN([C@H](C)CO)C(=O)c2cc(NC(=O)NC3CCCCC3)ccc2O[C@@H](C)CCCCO[C@@H]1CN(C)C(=O)Nc1ccccc1	29	8
CCCN(C)C[C@H]1Oc2cc(-c3ccc(OC)cc3)ccc2S(=O)(=O)N([C@H](C)CO)C[C@H]1C	u	x
Cc1noc(C)c1NC(=O)N(C)C[C@@H]1Oc2ccc(NC(=O)Nc3ccc(F)cc3)cc2CC(=O)N([C@H](C)CO)C[C@@H]1C	-2	5
Cc1cc(C(=O)Nc2cccc3c2O[C@@H](CN(C)C(=O)Nc2c(C)noc2C)[C@H](C)CN([C@@H](C)CO)C3=O)n(C)n1	12	7
C[C@@H]1CCCCO[C@H](CN(C)CC2CCCCC2)[C@@H](C)CN([C@H](C)CO)C(=O)c2cc(NS(=O)(=O)c3ccc(F)cc3)ccc2O1	0	-7
COc1ccccc1CNC(=O)C[C@H]1C=C[C@@H](NC(=O)CN(C)C)[C@@H](CO)O1	10	5
COc1ccc(NC(=O)N(C)C[C@@H]2Oc3c(NC(=O)NC(C)C)cccc3C(=O)N([C@H](C)CO)C[C@H]2C)cc1	-12	-9
CCC(=O)Nc1ccc2c(c1)C(=O)N(C)C[C@H](OC)[C@H](C)CN(C(=O)c1ccccc1F)[C@@H](C)CO2	19	10
C[C@@H]1CN([C@H](C)CO)C(=O)Cc2cc(NS(=O)(=O)c3ccc(F)cc3)ccc2O[C@@H]1CN(C)Cc1ccccc1	-20	-17
O=C(C[C@@H]1CC[C@H](NC(=O)Nc2cc(F)ccc2F)[C@H](CO)O1)NCCCN1CCOCC1	7	1
COc1cccc(NC(=O)N(C)C[C@@H]2Oc3ncc(C#Cc4cccnc4)cc3C(=O)N([C@@H](C)CO)C[C@H]2C)c1	-10	-6
C[C@@H]1CN([C@H](C)CO)C(=O)c2ccccc2-c2ccccc2CO[C@@H]1CN(C)C(=O)Nc1cccc(F)c1	11	41
CC(C)NC(=O)Nc1ccc2c(c1)C(=O)N(C)[C@H]1CC[C@@H](CC(=O)NCc3ccc(F)cc3)O[C@@H]1CO2	3	0
COc1ccc(NC(=O)Nc2ccc3c(c2)C(=O)N([C@@H](C)CO)C[C@@H](C)[C@H](CN(C)C(=O)CCCN(C)C)OCCCC[C@H](C)O3)cc1	20	12
C[C@H](CO)N1C[C@H](C)[C@H](CN(C)Cc2ccccc2)Oc2c(NS(=O)(=O)c3ccc(Cl)cc3)cccc2C1=O	-29	-23
CCCC(=O)Nc1ccc2c(c1)C(=O)N(C)[C@H]1CC[C@@H](CC(=O)NCc3ccccc3Cl)O[C@H]1CO2	-24	-12
O=C(Nc1cc(F)ccc1F)N1CC(=O)N2[C@H](CO)[C@@H](c3ccc(-c4ccc(F)cc4)cc3)[C@H]2C1	u	x
Cc1ccc(-c2ccc3c(c2)O[C@H](CN(C)Cc2cncnc2)[C@@H](C)CN([C@H](C)CO)S3(=O)=O)cc1	-17&-19	-14&-8
C[C@@H]1CN([C@@H](C)CO)C(=O)Cc2cc(NC(=O)Nc3ccc4c(c3)OCO4)ccc2O[C@H]1CN(C)Cc1ccc(C(=O)Nc2ccccc2N)cc1	17	23
O=C(c1ccc(F)cc1)N1CC(=O)N2[C@@H](CO)[C@@H](c3ccc(-c4ccccc4F)cc3)[C@@H]2C1	-13	-10
CCCC#Cc1ccc2c(c1)O[C@@H](CN(C)C(C)=O)[C@@H](C)CN([C@@H](C)CO)S2(=O)=O	-8	-1
C[C@@H]1CN([C@H](C)CO)C(=O)c2cc(-c3cccnc3)cnc2O[C@@H]1CN(C)C(=O)Nc1ccc(C(F)(F)F)cc1	10	4

The last six records of the part before lead into the next.
SMILES	Vaccinia inh	Vaccinia inh Venus
O=C(Nc1cc(F)ccc1F)N1CC(=O)N2[C@H](CO)[C@@H](c3ccc(-c4ccc(F)cc4)cc3)[C@H]2C1	u	x
Cc1ccc(-c2ccc3c(c2)O[C@H](CN(C)Cc2cncnc2)[C@@H](C)CN([C@H](C)CO)S3(=O)=O)cc1	-17&-19	-14&-8
C[C@@H]1CN([C@@H](C)CO)C(=O)Cc2cc(NC(=O)Nc3ccc4c(c3)OCO4)ccc2O[C@H]1CN(C)Cc1ccc(C(=O)Nc2ccccc2N)cc1	17	23
O=C(c1ccc(F)cc1)N1CC(=O)N2[C@@H](CO)[C@@H](c3ccc(-c4ccccc4F)cc3)[C@@H]2C1	-13	-10
CCCC#Cc1ccc2c(c1)O[C@@H](CN(C)C(C)=O)[C@@H](C)CN([C@@H](C)CO)S2(=O)=O	-8	-1
C[C@@H]1CN([C@H](C)CO)C(=O)c2cc(-c3cccnc3)cnc2O[C@@H]1CN(C)C(=O)Nc1ccc(C(F)(F)F)cc1	10	4
OC[C@H]1[C@H](c2ccc(Br)cc2)[C@H]2CN(Cc3cncnc3)CCCCN21	37	3
Cc1noc(C)c1S(=O)(=O)N(C)C[C@@H]1Oc2ccc(NC(=O)NC(C)C)cc2CC(=O)N([C@H](C)CO)C[C@H]1C	10	-1
C[C@@H]1CN([C@@H](C)CO)S(=O)(=O)c2ccc(C#CC3(O)CCCC3)cc2O[C@H]1CN(C)C(=O)Cc1ccncc1	-3	-1
C[C@H](CO)N1C[C@H](C)[C@H](CN(C)CC2CC2)Oc2c(NS(=O)(=O)c3ccc(F)cc3)cccc2C1=O	5	1
CC(C)[Si](OCCCNS(=O)(=O)c1ccc(Br)cc1)(C(C)C)C(C)C	5	6
COc1ccc(NC(=O)Nc2ccc3c(c2)CC(=O)N([C@H](C)CO)C[C@@H](C)[C@H](CN(C)C(=O)NC2CCCCC2)O3)cc1	6	7
C[C@H]1CN([C@@H](C)CO)C(=O)c2cc(-c3ccccc3F)cnc2O[C@@H]1CN(C)C	9	5
Cc1ccc(CN(C)C[C@H]2OCc3cn(nn3)CCCC(=O)N([C@H](C)CO)C[C@H]2C)cc1	9	7
C[C@@H]1CN([C@H](C)CO)S(=O)(=O)c2ccc(C#Cc3ccc(F)cc3)cc2O[C@H]1CN(C)S(=O)(=O)c1cn(C)cn1	u	x
C[C@H]1CN([C@@H](C)CO)C(=O)CCCn2nncc2CO[C@@H]1CN(C)C(=O)Oc1cccc2ccccc12	-4	-1
N#C[C@@H]1[C@H](c2ccccc2C2=CCCCC2)[C@H](CO)N1C(=O)CN1CCOCC1	-8	-5
COc1ccccc1-c1cn(CC[C@@H]2CC[C@H](NC(=O)c3ccccc3F)[C@@H](CO)O2)nn1	1	2
COCC(=O)N(C)C[C@H]1Oc2cc(-c3cncnc3)ccc2S(=O)(=O)N([C@@H](C)CO)C[C@@H]1C	20	13
O=S(=O)(c1ccccc1F)N1CC[C@@H]2[C@H]1c1cc(-c3ccc(F)cc3)ccc1N[C@@H]2CO	u	x
O=C(Cc1ccccn1)N[C@@H]1CC[C@H](CCn2cc(-c3ccc(F)cc3)nn2)O[C@H]1CO	28	27
Cc1noc(C)c1S(=O)(=O)Nc1ccc2c(c1)C(=O)N([C@@H](C)CO)C[C@@H](C)[C@H](CN(C)Cc1ccccc1)OCCCC[C@H](C)O2	-18	-16
C[C@@H]1CCCCO[C@@H](CN(C)C(=O)Nc2cccc3ccccc23)[C@@H](C)CN([C@H](C)CO)C(=O)c2cc(NC(=O)Cc3ccccc3)ccc2O1	-3	-6
COC(=O)[C@H]1[C@H](CO)[C@H]2Cn3c(ccc(-c4cccnc4)c3=O)[C@H]2N1Cc1cccc(F)c1	-10	-7
Cc1ccc(S(=O)(=O)N(C)C[C@@H]2OCCCC[C@H](C)Oc3ccc(NS(=O)(=O)c4cccs4)cc3C(=O)N([C@@H](C)CO)C[C@H]2C)cc1	-31	-27
O=C([C@H]1[C@H](CO)[C@H]2Cn3c(cccc3=O)[C@@H]1N2CC1CCCC1)N1CCCCC1	4	8
C[C@H]1CN([C@@H](C)CO)C(=O)c2cc(NC(=O)Cn3cnnn3)ccc2O[C@H]1CN(C)C(=O)Nc1ccc(C(F)(F)F)cc1	14	2
C[C@@H]1CN([C@@H](C)CO)C(=O)c2cccc(NC(=O)c3nc4ccccc4s3)c2O[C@@H]1CN(C)S(=O)(=O)c1ccc(F)cc1	u	x
Cc1noc(C)c1NC(=O)N(C)C[C@H]1OCCCC[C@@H](C)Oc2ccc(NS(=O)(=O)c3c(C)noc3C)cc2C(=O)N([C@@H](C)CO)C[C@H]1C	18	15
COc1ccc(NC(=O)Nc2ccc3c(c2)C(=O)N([C@@H](C)CO)C[C@@H](C)[C@@H](CN(C)S(=O)(=O)c2ccc(OC)cc2)O3)cc1	3	9

Given with two lines to a compound: part of the list above.
Values in the order – Vaccinia inh	Vaccinia inh Venus
Cc1ccc(S(=O)(=O)N(C)C[C@@H]2OCCCC[C@H](C)Oc3ccc(NS(=O)(=O)c4cccs4)cc3C(=O)N([C@@H](C)CO)C[C@H]2C)cc1
  -31	-27
COc1cccc(NC(=O)N(C)C[C@@H]2Oc3ncc(C#Cc4cccnc4)cc3C(=O)N([C@@H](C)CO)C[C@H]2C)c1
  -10	-6
C[C@H]1CN([C@@H](C)CO)C(=O)c2cc(-c3ccccc3F)cnc2O[C@@H]1CN(C)C
  9	5
COc1ccc(NC(=O)Nc2ccc3c(c2)CC(=O)N([C@H](C)CO)C[C@@H](C)[C@H](CN(C)C(=O)NC2CCCCC2)O3)cc1
  6	7

Carrying on:
SMILES	Vaccinia inh	Vaccinia inh Venus
COc1ccc2c3c(n(C)c2c1)[C@@H](CO)N(C(=O)c1ccccn1)CC31CCN(C(C)=O)CC1	12	6
C[C@@H]1CCCCO[C@@H](CN(C)C(=O)Nc2cccc3ccccc23)[C@H](C)CN([C@@H](C)CO)C(=O)c2cc(N(C)C)ccc2O1	-15	2
C[C@@H]1CN([C@@H](C)CO)C(=O)c2cc(NC(=O)Nc3ccc4c(c3)OCO4)ccc2O[C@H]1CN(C)Cc1ccccc1	-23	-14
C#CCNC(=O)C1=C[C@@H](C)[C@H](CCCO)[C@@H](OCC)O1	14	2
COc1cccc(NC(=O)C[C@@H]2CC[C@H]3[C@@H](COc4ccc(NC(=O)c5ccccc5F)cc4C(=O)N3C)O2)c1	-7	-15
COCC(=O)N1CCC2(CC1)CN(Cc1cc(F)ccc1F)[C@H](CO)c1c2c2ccc(OC)cc2n1C	12	4
CCC(=O)N1C[C@@H]2[C@H](c3ccccc31)[C@H](CO)N2C(=O)Nc1ccccc1F	6	-5
C[C@@H]1CN([C@@H](C)CO)C(=O)Cc2cc(NC(=O)c3ccncc3)ccc2O[C@@H]1CN(C)C(=O)Nc1ccc2c(c1)OCO2	9	10
COc1ccc(NC(=O)Nc2ccc3c(c2)C(=O)N([C@@H](C)CO)C[C@H](C)[C@@H](CN(C)C)OCCCC[C@H](C)O3)cc1	-1	-6
CO[C@H]1CN(C)C(=O)c2cc(NC(=O)CC(F)(F)F)ccc2OC[C@H](C)N(C(C)=O)C[C@@H]1C	11	10
C[C@@H]1CN([C@H](C)CO)C(=O)c2cc(NS(=O)(=O)c3ccccc3)ccc2O[C@@H](C)CCCCO[C@@H]1CN(C)S(=O)(=O)c1ccc(F)cc1	-19	-16
C[C@@H]1CN([C@@H](C)CO)C(=O)c2cc(C3=CCCCC3)cnc2O[C@H]1CN(C)Cc1cccc(F)c1	u	x
CO[C@H]1CC[C@H]2CCOc3ccc(C#N)cc3C(=O)N(C)CCCC(=O)N(C)C[C@@H]1O2	11	5
COCC(=O)NC[C@@H]1[C@H](c2ccc(-c3ccccc3)cc2)[C@H](CO)N1C(C)=O	8	10
CC(=O)N1CCCCN2[C@@H](CO)[C@@H](c3ccc(-c4ccc(F)cc4)cc3)[C@@H]2C1	-16	-13
COCC(=O)N(C)C[C@H]1Oc2ncc(-c3ccc(C)cc3)cc2C(=O)N([C@@H](C)CO)C[C@@H]1C	-1	-8
COc1ccc(NC(=O)Nc2ccc3c(c2)C(=O)N([C@H](C)CO)C[C@H](C)[C@@H](CN(C)S(=O)(=O)c2ccccc2)OCCCC[C@@H](C)O3)cc1	8	0
C/C=C/c1ccc([C@H]2[C@@H](CN(C)C(C)=O)N(C(=O)NCCC)[C@H]2CO)cc1	10	17
C[C@@H]1CN([C@@H](C)CO)S(=O)(=O)c2ccc(C3=CCCC3)cc2O[C@H]1CN(C)S(=O)(=O)c1ccc(F)cc1	-21	-8
CO[C@H]1CN(C)C(=O)c2ccc(NC(=O)C3CCOCC3)cc2OC[C@@H](C)N(C(C)=O)C[C@@H]1C	11	9
O=C(C[C@H]1C[C@H]2c3cc(NC(=O)Nc4ccc(F)cc4)ccc3O[C@H]2[C@H](CO)O1)NC1CCCC1	11	10
Cc1ccc(S(=O)(=O)Nc2ccc3c(c2)CC(=O)N([C@@H](C)CO)C[C@H](C)[C@@H](CN(C)S(=O)(=O)c2cn(C)cn2)O3)cc1	-7	-1
COCC(=O)Nc1ccc2c(c1)[C@H]1C[C@@H](CC(=O)NCCN3CCCCC3)O[C@@H](CO)[C@H]1O2	5	1
O=C(CC1CC1)N1CC2(C1)[C@@H](c1ccccc1)[C@H](CO)N2CC1CCOCC1	-8	-1
COc1ccc(NC(=O)N(C)C[C@H]2Oc3ncc(C#CCN(C)C)cc3C(=O)N([C@@H](C)CO)C[C@H]2C)cc1	14	18
CN(C)CC(=O)Nc1ccc2c(c1)[C@@H]1C[C@@H](CC(=O)NCC3CC3)O[C@@H](CO)[C@@H]1O2	11	13
